Screens deposited in PubChem by several laboratories.
Yeast UUG start – alters start codon recognition fidelity in yeast; S. cerevisiae UUG-firefly luciferase reporter, luminescence/redox ratio; activity score, % at 18.7 µM; 350,000 tested, 0.13% active; AID 602363;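 active = replicate mean at a twofold rise or more, about +100% in these data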;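 note: firefly luciferase made from a UUG start codon reports start codon fidelity; reporter light over untreated wells divided by growth signal over untreated wells; some hits fall short of that in this replicate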
eIF4H inh – inhibitors of RNA binding by human eIF4H; eIF4H fluorescence polarization binding assay; inhibition, % at 35 µM; 290,000 tested, 0.94% active;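 active = 50% or more with normal probe brightness, or confirmed in later tests; inconclusive = above 50% with abnormal brightness, or retests that disagree; inactive = below 50% or failed in later tests; about a fifth of its hits are not listed in these tables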;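 note: calls also rest on retests at 20 µM and on dose response follow-up; 0% = protein and probe with vehicle and 100% = probe without protein; strong numbers were not always called active; many hits fall short of the cut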
HIV Env fusion – blocks HIV Env-driven cell-cell fusion; HeLa-JRFL Env/CEM21 cell fusion, luciferase; 360,000 tested, 1.1% active; AID 651610; inhibition, % at 12.3 µM;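 active = mean replicate inhibition score of at least 50 and every replicate individually at or above 50; inconclusive = only one of the two criteria met; inactive = mean below 50 and not all replicates reaching 50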;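 note: 0% = plate neutral controls and 100% = maraviroc near 300 nM; one replicate is shown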
PABP FP inh – blocks human PABP binding to poly(A) RNA; P11940; fluorescence polarization; inhibition, % at 35 µM; 290,000 tested, 1% active;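 active = 50% or more with normal probe brightness, or confirmed in later tests; inconclusive = above 50% with abnormal brightness, or retests that disagree; inactive = below 50% or failed in later tests; about a fifth of its hits are not listed in these tables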;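 note: calls also rest on retests at 20 µM and on dose response follow-up; controls were probe without protein and protein plus probe with vehicle; some compounds called inactive have numbers as strong as hits; many hits fall short of the cut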
Rce1 inhib – blocks yeast Ras-converting enzyme. yeast membranes, quenched prenylated peptide cleavage fluorescence. calls only. 290,000 tested, 0.27% active;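 active = fall in fluorescence gain of 50% or more versus controls, with final raw signal at or below 3038400; inconclusive = same 50% fall but final raw signal above 3038400; inactive = fall in fluorescence gain under 50%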;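 note: plate controls were neutral control wells for no effect and wells lacking membranes for full effect; tested at 10 µM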
Target sequence (Q03530 whole entry, looked up): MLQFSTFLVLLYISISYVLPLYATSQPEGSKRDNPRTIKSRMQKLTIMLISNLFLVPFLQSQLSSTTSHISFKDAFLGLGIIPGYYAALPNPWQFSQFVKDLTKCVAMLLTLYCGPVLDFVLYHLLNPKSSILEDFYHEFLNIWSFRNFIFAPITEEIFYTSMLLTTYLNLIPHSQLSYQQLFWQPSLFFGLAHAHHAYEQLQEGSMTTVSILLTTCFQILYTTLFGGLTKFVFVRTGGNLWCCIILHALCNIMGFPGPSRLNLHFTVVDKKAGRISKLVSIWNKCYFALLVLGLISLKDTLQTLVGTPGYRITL
MT1-MMP act inh – blocks activation of human MT1-MMP. 360,000 tested, 0.061% active. GFP/RFP ratio change, % at 20 µM. HT1080 RFP-PRO-GFP cells, GFP/RFP ratio fluorescence, overnight; percent of plate control window, DMSO zero. AID 651647;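 active = GFP/RFP ratio change of at least 30% with cell ATP level not reduced by more than half and red fluorescence within 50% of control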; note: strong numbers were not always called active
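Test system: HT1080 cells expressing an RFP-PRO-GFP fluorescent reporter construct / Compound dosing: single-point 20 µM compound, 1% DMSO / Schedule: cells overnight before dosing, compound overnight, 37 °C, 5% CO2 / Evaluation: GFP/RFP fluorescence ratio / Control set: DMSO and RFP-L50D-GFP cell wells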
CSC inhib – cancer stem cell inhibition | cancer stem cell-like cells viability, luminescence | inhibition, % at 7.5 µM | 300,000 tested, 1.1% active;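 active = mean at 75% or more and at least half the replicates too; inconclusive = mean and replicates disagree; tested in HMLE shEcad cells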;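 note: 0% = median of negative and 100% = median of positive control wells; the first replicate is given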
eIF4H inh retest – further read-out of eIF4H inh, marked with its call; inhibition, %; compound at 20 µM; confirmation average;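 mean of two retest wells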
PABP FP inh retest – further read-out of PABP FP inh, marked with its call; inhibition, %; compound at 20 µM; confirmation repeats;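 mean of two retest wells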
MT1-MMP act inh RFP – second read-out of MT1-MMP act inh, no call of its own (marks repeat the call); RFP signal change, %; measured here: RFP expression control read;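 0 = vehicle wells; hits needed this value within 50% of zero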
Starred values were filed as active, the others as inactive; i = inactive; u = inconclusive; x = no result given. Compounds as they come. Share with any hit: about 2.9%.

SMILES	Yeast UUG start	eIF4H inh	HIV Env fusion	PABP FP inh	Rce1 inhib	MT1-MMP act inh	MT1-MMP act inh RFP	CSC inhib	others
CCOC(=O)C1=C(COC(=O)/C=C/c2ccc(SC)cc2)NC(=O)NC1C (stereo not given)	-14	x	1	x	i	1	-2	-4
COc1ccc(Cc2nnc(SCC(=O)N(C)CC(=O)Nc3ccc(C)cc3)o2)cc1	x	x	-6	x	i	-1	-2	-9
CN(C)CCCNC(=O)c1ccc2[nH]c3ccccc3c2c1	-16	0	-9	-3	i	13	0	-12
CSCCC(=O)N(C)CC1CCCN(CCc2cccc(C(F)(F)F)c2)C1 (stereo not given)	-28	-6	12	-12	i	-1	0	2
O=C(c1ccccc1)C1Oc2ccccc2C2CC(c3cccs3)=NN12 (stereo not given)	-30	0	-24	9	i	-2	0	21
COc1ccc(/C=C2\Oc3cc(OC(=O)N4CCOCC4)ccc3C2=O)c(OC)c1	-16	u	13	u	i	-2	-5	5
Cc1noc(C)c1CCC(=O)Nc1c(C(C)C)cccc1C(C)C	-5	x	24	x	x	5	1	x
COc1ccccc1NC(=O)CN1CCN(CC(=O)Nc2ccc(F)cc2)CC1	-7	12	x	-6	x	2	1	3
CC(C)CCNC(=O)Cn1c(=O)oc2cc(S(=O)(=O)N3CC(C)CC(C)C3)ccc21 (stereo not given)	14	-6	1	-9	i	-1	-12	2
Cc1cc(C)c(S(=O)(=O)N2CCOC2CNC(=O)C(=O)NCc2ccncc2)c(C)c1 (stereo not given)	-25	-2	-5	-2	i	0	-5	x
COC(=O)CCC(=O)COc1ccc(OC)cc1C#N	-17	-8	x	2	i	-3	1	-7
COc1cccc(C(=O)N2CCN(Cc3ccc4c(c3)OCO4)CC2)c1OC	-12	-2	-2	12	i	1	0	12
C=CCN(C(=O)c1ccc(Cl)cc1)c1ccccc1C(=O)NCC(=O)O	-4	6	-11	4	i	-1	3	-14
N=c1c2c(n(Cc3ccc(F)cc3)c3c1CCC3)CCCC2	x	3	-10	-2	i	-14	-26	-3
CC(NC(=O)c1ccc2c(c1)S(=O)(=O)N=C1CCCCCN12)c1ccc(S(N)(=O)=O)cc1 (stereo not given)	4	1	9	3	i	0	3	5
CN(CCCS(=O)(=O)[O-])c1ccc(/C=C/c2ccc3ccccc3[n+]2C)cc1	-3	9	-17	35	i	40*	32*	-3
Cc1nc2ccccc2c(=O)n1NC(=O)c1ccc(Cl)c(Cl)c1	-16	4	7	0	i	2	1	3
Cc1cc(C)n2c(SCC(=O)NC3CCCCC3)nnc2n1	x	-8	9	-4	i	2	5	-12
CC(C)CNC(=S)N(CCN(C)C)Cc1cc2cc3c(cc2[nH]c1=O)OCCO3	-21	4	1	6	i	-2	3	-6
CN(CC(=O)Nc1cccc(S(=O)(=O)NC2=NCCC2)c1)Cc1cccc(F)c1	-2	x	8	x	x	2	-1	-6
O=C(Nc1ccccc1Cl)c1cc(S(=O)(=O)N2CCCCC2)ccc1N1CCOCC1	-16	-1	-10	0	i	-7	-10	14
Cc1ccc(CC2CC(=O)N(c3ccc(Cl)cn3)C2=O)cc1 (stereo not given)	-5	-5	x	7	i	-4	1	1
Cc1ccccc1Cn1c(C(C)O)nc2ccccc21 (stereo not given)	x	5	x	2	i	0	3	x
COc1cc(OC)cc(C(=O)NC(C)CNc2ccc(Cl)cc2[N+](=O)[O-])c1 (stereo not given)	-4	-6	9	4	i	7	2	-6
COc1ccc(N(CC(=O)N2CCN(c3ccccc3)CC2)S(=O)(=O)c2c(C)noc2C)cc1	14	-2	18	2	i	2	-4	-3
O=S(=O)(NC(=NCc1ccccc1)c1ccccc1)c1ccc(Br)cc1	-1	-5	15	-9	i	1	-2	-9
CCOc1ccc(N=Nc2cc(C(C)C)ccc2O)cc1	-13	6	x	0	i	3	-1	13
O=C(COc1ccc2c3c(c(=O)oc2c1)CCC3)N1CCCC1	0	-3	-13	-2	i	0	-2	4
CCCCNC(=O)NS(=O)(=O)c1ccc(C)cc1	1	-3	-21	2	i	1	5	-6
O=C(N1CCOCC1)N1c2ccccc2Sc2ccccc21	-13	-3	x	-2	i	0	-2	-4
COc1ccc(C)cc1NC(=O)COC(=O)c1ccc([N+](=O)[O-])o1	x	6	-5	4	i	0	1	3
CCS(=O)(=O)N1CCN(c2ncnc3sc(C)c(C)c23)CC1	-19	3	1	12	i	-2	-4	-26
CC(C)(C)c1nnc(NC(=O)Cc2ccc(Br)cc2)s1	-24	22	1	-7	i	3	1	-6
O=C(Nc1nccs1)c1ccc(-c2ccccc2Cl)o1	x	-6	-238	20	x	5	-4	x
O=C(NCC1CCOCC1)c1ccc(OC2CCN(Cc3ccccn3)CC2)cc1	0	-1	15	-3	i	2	7	-9
CC(C)c1ccc(OCC(=O)Nc2ccc3oc(=O)ccc3c2)cc1	-15	-1	-2	3	i	-2	1	11
CC1CCC2(CC1)NC(=O)c1ccccc1O2 (stereo not given)	1	-7	x	-8	i	-1	-2	8
CC1CCCN(C(=O)CSc2ncccn2)C1 (stereo not given)	-12	-5	-14	0	i	3	2	0
CC1CC(C)CN(S(=O)(=O)N2CCCC(C(=O)NCc3ccccc3Cl)C2)C1 (stereo not given)	-13	-10	19	-1	i	-4	-3	3
CCCc1[nH]nc2c1C(CCC)C(C#N)=C(N)O2 (stereo not given)	-18	-8	23	2	i	6	6	-6
Cc1ccc(NC(=O)CC2OC(=O)c3ccccc32)cc1S(=O)(=O)N1CCCCCC1 (stereo not given)	-30	x	6	x	x	0	-5	x
Cc1ccc(OCc2ccc([N+](=O)[O-])cc2)c([N+](=O)[O-])n1	-16	28	-160	18	i	3	0	-8
Cc1nc([N+](=O)[O-])c(SCC(N)=O)n1Cc1ccccc1	x	-1	14	3	i	0	-3	-6
CCCCN(C)S(=O)(=O)c1ccc(C(=O)Nc2nnc(-c3cccs3)o2)cc1	x	14	x	18	i	x	x	111*
CC(C)(C)C1CCc2c(sc3nc(SCC(N)=O)nc(N)c23)C1 (stereo not given)	-15	3	x	-6	i	9	0	-9
O=C(NCCCN1CCCC1=O)c1ccc2c(=O)n(Cc3ccco3)c(=S)[nH]c2c1	-14	96	-5	4	i	1	-3	x	eIF4H inh retest=-4;PABP FP inh retest=6
CCc1nc2c(OCc3ccc(F)cc3)cccn2c1N(C)C(=O)C(C)C	-22	x	1	x	x	1	1	x
Nc1ccc(CCS(N)(=O)=O)cc1	-9	6	-23	0	i	-3	2	3
CCOc1ccc(-n2c(-c3ccco3)nc3c(cnn3-c3ccc(C)cc3)c2=O)cc1	-5	-2	21	-7	i	0	-2	x
Cc1ccc(NC(=O)CNc2cccc(S(=O)(=O)N3CCCC3)c2)cc1F	1	x	-8	x	i	-3	-21	9
CCCCn1c(N)c(N(CC)C(=O)c2ccccc2F)c(=O)[nH]c1=O	-23	-10	-4	11	i	1	2	-1
CCOc1ccc(NC(=O)CCC(=O)O)cc1	-36	-2	-23	-6	x	1	3	-4
CC(OC(=O)CN1C(=O)C2CCCCC2C1=O)C(=O)Nc1ncc(Cl)cc1Cl (stereo not given)	x	-4	12	0	i	9	3	-11
CCOC(=O)N1CCN(c2ncnc3scc(-c4ccc(Cl)cc4)c23)CC1	-11	0	x	13	i	-2	-4	-10
CN(CC(=O)Nc1ccccc1Br)C(=O)c1ccccc1-c1nc2ccccc2s1	0	-1	x	3	i	-4	-1	-36
CC(C)Cn1c2c(c(=O)[nH]c1=O)C(NS(=O)(=O)c1ccc(Cl)cc1)(C(F)(F)F)C(=O)N2 (stereo not given)	-20	-3	-10	3	i	-1	4	3
CCOCCCN(C(=O)CNC(=O)c1ccco1)C(C(=O)NC1CCCC1)c1ccccc1C (stereo not given)	-38	-10	-25	4	i	6	3	-7
COc1ccc(N/C(=C/[N+](=O)[O-])SC)cc1	x	-2	-12	2	i	-1	-1	4
CCC1(C)NC(C(=O)O)Cc2c1[nH]c1ccccc21 (stereo not given)	-12	6	0	2	i	-3	-3	-8
CN1CCN(c2nc(-c3ccc(Cl)cc3Cl)nc3ccccc23)CC1	4	8	6	2	i	-9	-1	-1

Later entries.
SMILES	Yeast UUG start	eIF4H inh	HIV Env fusion	PABP FP inh	Rce1 inhib	MT1-MMP act inh	MT1-MMP act inh RFP	CSC inhib	others
CS(=O)(=O)N(CC(=O)NC1CC2CCC1C2)c1cccc(C(F)(F)F)c1 (stereo not given)	-10	-4	x	0	i	-3	1	-6
Cc1ccc(C)c(NC(=O)CSc2nnc(-c3ccncc3)o2)c1	-14	1	-17	-12	i	2	4	-21
Nc1scc2c(C(=O)N/N=C/c3ccc(Cl)cc3)nn(-c3ccccc3)c(=O)c12	5	47	-30	13	i	25	12	-6
CC(C)CCN1CCN(Cc2cccc(-n3cccn3)c2)CC1CCO (stereo not given)	-15	8	-7	-4	i	-3	-1	40
CCOc1ccc(C2CC(c3cccc(C)c3)n3ncnc3N2)cc1 (stereo not given)	-19	-8	16	-8	i	-2	-1	3
C=CCOc1ccc(CN(C)CC(=O)Nc2ccc3c(c2)CCC3)cc1	x	18	20	2	i	1	4	6
O=C(Nc1ccc(N2CCCCC2)cc1)c1cc(S(=O)(=O)N2CCOCC2)ccc1F	6	x	-8	x	i	1	-1	-9
CCN(C(=O)COC(=O)c1nc(Cl)ccc1Cl)C1CCS(=O)(=O)C1 (stereo not given)	-17	x	3	x	i	4	2	-10
CN(C)C(CNC(=O)Cc1cccc(C(F)(F)F)c1)c1ccco1 (stereo not given)	x	12	8	-15	i	6	1	-9
COc1cccc(-n2nnc3c(=O)n(CC(=O)OCc4ccccc4)cnc32)c1	0	-4	x	-3	i	4	4	-5
O=C(CN1C(=O)C(=O)c2ccccc21)c1ccccc1	-16	12	-14	10	i	-3	7	-2
Cc1ccc(OCCn2c(Br)nc3c2c(=O)n(C)c(=O)n3C)cc1	-11	2	14	-9	i	4	-16	-3
Cc1cccc(NCC(=O)N/N=C/c2ccc(Br)cc2)c1	x	-5	-67	-4	i	0	-2	46
Cc1cc2n(n1)C(c1ccccc1Cl)Nc1ccccc1-2 (stereo not given)	-13	-3	u	8	i	7	4	-6
COc1cccc(NC(=S)N(CCc2c(C)[nH]c3ccccc23)Cc2cccs2)c1	-16	-3	-19	7	x	-7	-12	-2
COc1ccc(NC(=O)CSc2nnc(-c3cccc(O)c3)o2)cc1	-11	-4	-8	10	i	-2	-2	x
Cc1cccc(OCc2nnc(NC(=O)Cc3cccs3)s2)c1	-19	-3	12	-10	i	0	4	-2
CC(C)C(=O)Nc1cccc(-c2nc3ncccc3o2)c1	-24	0	-10	8	i	-2	-3	-3
COC(=O)c1ccc(=O)n(Cc2ccco2)c1	1	15	x	-11	i	2	6	x
